Source: PubChem
Rango dissoc inh – inhibitors of RanGTP-induced Rango-importin beta complex dissociation; O95149+P62826; Biochemical FRET Rango-importin beta, RanGTP-induced dissociation; Potency, µM (titrated, usually from 46.1 µM), without a hit: at the highest dose activity change, negative = inhibition; 0.071% of 340,000 active; AID 540253; active means falling FRET ratio curve, often poorly fitted, with flat reads before Ran was added; inconclusive means other falling curves, or compound fluorescence or quenching; inactive means flat or rising ratio curve;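 further: potency means the concentration at half of the fitted maximal effect; % of control where 0% means no effect; nearly all actives have a fitted effect of over 45% in size; -100% = wells without RanGTP and RCC1; the record marks most hits as doubtful in a second field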
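Compounds sat 5 min at room temperature with 0.1 uM Rango biosensor plus 0.25 uM importin beta, then FRET pre-read. RanGTP-RCC1 (0.6 uM Ran, 2mM GTP, 0.2 uM RCC1) added for 45 min, and the CFP/YFP post-read measured blocked complex dissociation.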
GLA inh pH 4.5 – alpha-galactosidase A (human) inhibition, pH 4.5. 230,000 tested, under 10 active. AID 1467. P06280. activity change, negative = inhibition, % at 105 µM. purified enzyme, 4-MU-alpha-Gal fluorescence, pH 4.5; inconclusive = small, poorly fitted or top-dose-only inhibition, or a rising curve; inactive = flat fitted curve, though single readings scatter; no compound was filed as active;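 further: 0% = full activity with enzyme and -100% = basal without enzyme; dose as in the result columns while the protocol names 77 µM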
miR-21 reporter – raises the signal of a miR-21 reporter; HeLa miR-21 FLuc reporter, luciferase, 48 h; Potency, µM (top dose mostly 38.3 µM), inactives show top-dose reporter change, positive = more light; 340,000 tested, under 10 active; active = well fitted rising curve with a large enough effect; inconclusive = small, poorly fitted or top-dose-only effect; inactive = no such curve, though single readings can be large or run the other way;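 further: % of control where 0% means no effect; miR-21 action dims this reporter so a rising signal means less miR-21 action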
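HeLa cells endogenously expressing miR-21, stably carrying CMV-driven firefly luciferase with a downstream miR-21 binding site, 2000 cells/well. Titrations up to approximately 40 uM, 48 hours; luciferase luminescence read.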
Rango-impB inh – prevents formation of the Rango-importin beta complex; Q14974; Rango CFP/YFP FRET sensor + importin beta, 45 min; Potency, µM (highest dose often 92.2 µM), for the others: at the top dose inhibition of complex formation; 0.031% of 340,000 active; active = rising FRET ratio curve, often small or poorly fitted; inconclusive = mostly compound fluorescence or quenching in the first reads; inactive = flat curves in all reads;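 further: potency means the concentration at half of the fitted maximal effect; 0% = DMSO wells and 100% = buffer wells lacking importin beta; nearly all actives have a fitted effect of over 15% in size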
Target sequence (Q14974 whole entry, looked up): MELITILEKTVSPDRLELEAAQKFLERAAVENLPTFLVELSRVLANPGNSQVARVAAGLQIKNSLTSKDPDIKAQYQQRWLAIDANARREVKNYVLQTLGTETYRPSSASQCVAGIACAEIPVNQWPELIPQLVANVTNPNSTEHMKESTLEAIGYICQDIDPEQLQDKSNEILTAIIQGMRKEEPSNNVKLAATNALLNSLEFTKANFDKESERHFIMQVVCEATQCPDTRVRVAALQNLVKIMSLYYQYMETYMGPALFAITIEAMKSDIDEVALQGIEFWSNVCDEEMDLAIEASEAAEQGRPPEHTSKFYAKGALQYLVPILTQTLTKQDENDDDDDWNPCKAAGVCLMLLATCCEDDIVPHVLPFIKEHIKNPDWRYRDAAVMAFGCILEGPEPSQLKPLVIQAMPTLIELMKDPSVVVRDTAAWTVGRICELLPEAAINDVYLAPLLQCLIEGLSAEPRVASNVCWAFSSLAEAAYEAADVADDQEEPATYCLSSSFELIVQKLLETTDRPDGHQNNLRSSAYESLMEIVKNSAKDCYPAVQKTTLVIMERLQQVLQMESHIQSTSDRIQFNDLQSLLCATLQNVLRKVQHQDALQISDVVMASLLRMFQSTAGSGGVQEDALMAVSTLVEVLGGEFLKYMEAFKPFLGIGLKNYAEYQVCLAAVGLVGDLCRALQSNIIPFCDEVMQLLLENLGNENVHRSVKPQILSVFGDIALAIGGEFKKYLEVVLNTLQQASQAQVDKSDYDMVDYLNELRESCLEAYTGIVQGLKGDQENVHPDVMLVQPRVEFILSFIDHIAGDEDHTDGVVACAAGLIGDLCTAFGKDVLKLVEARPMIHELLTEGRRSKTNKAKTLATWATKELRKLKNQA
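FRET biosensor (snurportin 1 IBB flanked by EYFP and cerulean), 50 nM, with compound 5 min, then 0.125 microM importin beta in PBS, 1 mM DTT, 0.02% Tween-20, 0.1% BSA. CFP/YFP ratio read after 45 min at room temperature; pre-read flags interference.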
Active calls of the source: *; ? = inconclusive; · = no result given; & = joins results of further samples. Some of the compounds tested; rates above refer to the full screens.

Rango dissoc inh	GLA inh pH 4.5	miR-21 reporter	Rango-impB inh	Structure
0.4%	·	·	1.8%	CN(C)CC/C=C1/c2ccccc2COc2ccc(CC(=O)O)cc21
-0.5%	·	-2.2%	-7.0%	CCCC1(c2ccccc2)NC(=O)N(CC(=O)N(C)Cc2c(F)cccc2Cl)C1=O (stereo not drawn)
20.4%	5.7&0.3&4.7	-23.5%	0.5%	COc1ccc(C(=O)c2ccccc2)c(O)c1
2.0%	-0.6	1.6%	7.8%	CCCC(=O)O[C@]1(C(=O)CCl)[C@@H](C)C[C@H]2[C@@H]3CCC4=CC(=O)C=C[C@]4(C)[C@@]3(F)C(=O)C[C@@]21C
-0.4%&0.3%	·	·	-2.2%&-2.5%	C[C@H](O)CC(=O)O
-0.6%	-2.0&-6.2&1.8&-0.3&0.6	-0.9%	-0.2%	Cc1scc2c1N(C(=O)CN1CCN(C)CC1)c1ccccc1NC2=O
·	4.6&1.4	5.9%	·	CCCOc1ccc2nc(NC(=O)OC)[nH]c2c1
·	-3.3	-0.6%	·	CCN(CC)CC1CCCCN1CC(=O)N1c2ccccc2C(=O)Nc2cccnc21 (stereo not drawn)
-5.7%&-10.2%	-3.0&-6.0&-7.4&-5.8&-2.2	-9.2%	-4.2%&-2.4%	N=c1nc(N2CCCCC2)cc(N)n1O
?	·	-3.4%	7.4%	O=C(NC1CCN(CCc2c[nH]c3ccccc23)CC1)c1ccccc1
1.2%	·	·	1.5%	O=[N+]([O-])c1cncn1CCN1CCOCC1
·	-2.0	-0.1%	·	COc1ccc(-c2oc3c(CC=C(C)C)c(O[C@@H]4O[C@H](CO)[C@@H](O)[C@H](O)[C@H]4O)cc(O)c3c(=O)c2O[C@@H]2O[C@@H](C)[C@H](O)[C@@H](O)[C@H]2O)cc1
5.7%	1.8&-3.2	1.0%	0.0%	CN[C@@H]1[C@H](O)[C@H](NC)[C@H]2O[C@@]3(O)C(=O)C[C@@H](C)O[C@H]3O[C@@H]2[C@H]1O
7.5%	3.5	-4.3%	2.9%	O=C(O)Cc1cn(-c2ccccc2)nc1-c1ccc(Cl)cc1
9.7%	4.6	·	-0.6%	CCCOc1ccc(C(=O)OCCN(CC)CC)cc1N
13.8%	·	-0.8%&-2.9%	-1.1%	CN(C)S(=O)(=O)n1cc(/C=C(\NC(=O)c2ccccc2)C(=O)NCCCn2ccnc2)c2ccccc21
13.9%&-9.0%	-13.3	·	-3.6%&-0.1%	CC(Cc1cccc(C(F)(F)F)c1)NCCOC(=O)c1ccccc1 (stereo not drawn)
8.4%	-8.9	-9.4%	-0.6%	CCN(CCCCOC(=O)c1ccc(OC)c(OC)c1)C(C)Cc1ccc(OC)cc1 (stereo not drawn)
-3.2%	-15.1	-0.8%	?	O=C(O)c1cc(=O)c2ccccc2o1
8.3%	-9.1&5.4&-0.9	0.2%	-3.8%	CC(C)NNC(=O)c1ccncc1
0.9%	-3.4&-18.0	?	0.4%	CN(C)c1ccc2nc3ccc(=[N+](C)C)cc-3sc2c1
-10.6%	·	-4.4%&-0.8%	1.8%	Cc1nc2c3ccccc3nc(NNC(=O)CCC(=O)N3CCN(c4ccccc4F)CC3)n2n1
17.3%	-3.5	·	-3.6%	CCc1cccc(CC)c1NC(=O)CN(CC(=O)O)CC(=O)O
?	?	?	?	Nc1c2ccccc2nc2ccccc12
15.8%	0.9	9.3%	-4.2%	O=C(c1ccccn1)N(Cc1cccs1)C1(C(=O)NC2CCCCC2)CCCCC1
-11.8%	1.2	-0.6%	-2.9%	CCCCCCCCCCCCCCCC(O)C(N)CO (stereo not drawn)
33.9%	-19.2	-27.1%	0.4%	Cc1c(C)n(Cc2ccccc2)c2ccc(C(=O)OCCN(C)C)cc12
-19.2%	-29.4	·	-0.4%	CCc1ccccc1OC[C@@H](O)CN[C@H]1CCCc2ccccc21
·	-8.6	-17.1%	·	CN(C)CCCSc1ccccc1NC(=O)/C=C/c1ccccc1
3.3%	0.2	·	?	CC(C)(C)NCC(O)COc1cccc2c1CC(O)C(O)C2 (stereo not drawn)
37.4%	·	-29.0%	1.9%	CCCC(=O)O[C@]1(C(=O)COC(C)=O)CC[C@H]2[C@@H]3C[C@H](F)C4=CC(=O)C=C[C@]4(C)[C@@]3(F)[C@@H](O)C[C@@]21C
14.0%	-6.1&-6.4	·	0.4%	CN(C)C/C=C(\c1ccc(Br)cc1)c1cccnc1
-2.3%	·	·	0.0%	O=C(Nc1cc(-c2ccccc2)nn1-c1ccccc1F)c1ccc([N+](=O)[O-])cc1
-13.5%	-11.9	·	2.5%	Nc1ncnc2c1c(-c1ccc(Oc3ccccc3)cc1)cn2C1CCCC1
6.2%	·	·	1.3%	C[C@@H]1C[C@H]2[C@@H]3CCC4=CC(=O)C=C[C@]4(C)[C@@]3(Cl)[C@@H](O)C[C@]2(C)[C@@]1(OC(=O)c1ccco1)C(=O)CCl
?	?	-5.0%	?	CC(=O)Oc1ccc2c(C)cc(=O)oc2c1
·	-8.2	14.5%	·	COc1cc(N)c(Cl)cc1C(=O)N[C@@H]1CCN(CCCOc2ccc(F)cc2)C[C@@H]1OC
-2.0%	-12.2	·	-2.0%	COc1cc(N)c(Cl)cc1C(=O)N[C@H]1CCN(CCCOc2ccc(F)cc2)C[C@H]1OC
-19.9%	?	·	?	Cc1cc(=O)oc2cc(O)ccc12
26.1%	2.1&-13.9	·	1.2%	Cn1ccc2cc3c(cc21)CCN3C(=O)Nc1cccnc1
-11.4%	-7.9	-36.1%	-1.0%	CC1(C)O[C@@H]2C[C@H]3[C@@H]4C[C@H](F)C5=CC(=O)C=C[C@]5(C)[C@@]4(F)[C@@H](O)C[C@]3(C)[C@]2(C(=O)CO)O1
11.0%	·	·	4.6%	COC(=O)N/N=C/c1c[n+]([O-])c2ccccc2[n+]1[O-]
4.4%&2.3%	11.7	·	2.3%&0.2%	CCCCOc1cc(C(=O)OCCN(CC)CC)ccc1N
18.8%	0.4&0.5	-22.4%	-1.8%	COc1cc(C2Oc3cc(C4Oc5cc(O)cc(O)c5C(=O)C4O)ccc3OC2CO)ccc1O (stereo not drawn)
-16.9%	·	·	-0.7%	CC[C@]12CCCN3CCc4c(n(c5ccccc45)[C@](O)(C(=O)OC)C1)[C@@H]32
-11.0%	-6.3&-1.7	·	-0.3%	CCCCCCCCCCCCCCC[C@@H](O)[C@@H](N)CO
-9.0%	·	4.6%	-1.0%	CC(C)(C)NCC(O)COc1cccc2c1C[C@H](O)[C@H](O)C2 (stereo partly drawn)
8.2%	?	-7.8%	-2.4%	CCCCN(CCCC)CCCOC(=O)c1ccc(N)cc1
17.9%	·	-2.5%	0.6%	CCC(C(=O)Nc1ccccc1N1CCCC1)c1ccccc1 (stereo not drawn)
?	-12.9&-12.6&4.5	·	3.2%&-0.1%	O=C1c2c(O)ccc(O)c2C(=O)c2c(NCCNCCO)ccc(NCCNCCO)c21
-11.0%	·	·	-4.2%	CC(=O)OCC(=O)[C@@]1(O)CC[C@H]2[C@@H]3CCC4=CC(=O)C=C[C@]4(C)[C@@]3(F)[C@@H](O)C[C@@]21C
-2.5%	·	·	5.8%	CC1O[C@@H](OCC2O[C@@H](Oc3cc(O)c4c(c3)OC(c3ccc(O)cc3)CC4=O)[C@H](O)[C@@H](O)[C@@H]2O)[C@H](O)[C@H](O)[C@H]1O (stereo partly drawn)

Grouped by structure: those above with fluorine.
Rango dissoc inh	GLA inh pH 4.5	miR-21 reporter	Rango-impB inh	Structure
-0.5%	·	-2.2%	-7.0%	CCCC1(c2ccccc2)NC(=O)N(CC(=O)N(C)Cc2c(F)cccc2Cl)C1=O (stereo not drawn)
2.0%	-0.6	1.6%	7.8%	CCCC(=O)O[C@]1(C(=O)CCl)[C@@H](C)C[C@H]2[C@@H]3CCC4=CC(=O)C=C[C@]4(C)[C@@]3(F)C(=O)C[C@@]21C
13.9%&-9.0%	-13.3	·	-3.6%&-0.1%	CC(Cc1cccc(C(F)(F)F)c1)NCCOC(=O)c1ccccc1 (stereo not drawn)
-10.6%	·	-4.4%&-0.8%	1.8%	Cc1nc2c3ccccc3nc(NNC(=O)CCC(=O)N3CCN(c4ccccc4F)CC3)n2n1
37.4%	·	-29.0%	1.9%	CCCC(=O)O[C@]1(C(=O)COC(C)=O)CC[C@H]2[C@@H]3C[C@H](F)C4=CC(=O)C=C[C@]4(C)[C@@]3(F)[C@@H](O)C[C@@]21C
-2.3%	·	·	0.0%	O=C(Nc1cc(-c2ccccc2)nn1-c1ccccc1F)c1ccc([N+](=O)[O-])cc1
·	-8.2	14.5%	·	COc1cc(N)c(Cl)cc1C(=O)N[C@@H]1CCN(CCCOc2ccc(F)cc2)C[C@@H]1OC
-2.0%	-12.2	·	-2.0%	COc1cc(N)c(Cl)cc1C(=O)N[C@H]1CCN(CCCOc2ccc(F)cc2)C[C@H]1OC
-11.4%	-7.9	-36.1%	-1.0%	CC1(C)O[C@@H]2C[C@H]3[C@@H]4C[C@H](F)C5=CC(=O)C=C[C@]5(C)[C@@]4(F)[C@@H](O)C[C@]3(C)[C@]2(C(=O)CO)O1
-11.0%	·	·	-4.2%	CC(=O)OCC(=O)[C@@]1(O)CC[C@H]2[C@@H]3CCC4=CC(=O)C=C[C@]4(C)[C@@]3(F)[C@@H](O)C[C@@]21C

Two of these compounds in another layout.
Each structure is followed by: Rango dissoc inh, GLA inh pH 4.5, miR-21 reporter, Rango-impB inh
- N=c1nc(N2CCCCC2)cc(N)n1O
  -5.7%&-10.2%, -3.0&-6.0&-7.4&-5.8&-2.2, -9.2%, -4.2%&-2.4%
- CCN(CC)CC1CCCCN1CC(=O)N1c2ccccc2C(=O)Nc2cccnc21 (stereo not drawn)
  ·, -3.3, -0.6%, ·
